Compound activity deposited in PubChem BioAssay by Fisher Drug Discovery Resource Center.
NPYLR7 ag – activates Aedes aegypti NPYLR7 receptor | activation, % at 10 µM | AID 1259423 | 270,000 tested, 0.15% active | HEK293T NPYLR7/Galpha15, GCaMP6s calcium fluorescence; in the data active means activation above about 40%;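 further: 0% = vehicle and 100% = reference agonist at the receptor; some compounds past the cut are filed as inactive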
NPYLR7 ag max-min – second read-out of NPYLR7 ag, no call of its own (marks repeat the call); activation, %; measured here: Max-Min RFU normalised activation; some inactives read as strong as hits;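 span of the calcium signal over five minutes; 0% = vehicle and 100% = native peptide agonist; compound fluorescence can raise it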
Active calls of the source: *; & = joins results of further samples.

Below each SMILES: NPYLR7 ag, NPYLR7 ag max-min
> Cc1c2oc3c(C)ccc(C(=O)OC(C)C4NC(=O)C(C(C)C)N(C)C(=O)CN(C)C(=O)C5CCCN5C(=O)C(C(C)C)NC4=O)c3nc-2c(C(=O)OC(C)C2NC(=O)C(C(C)C)N(C)C(=O)CN(C)C(=O)C3CCCN3C(=O)C(C(C)C)NC2=O)c(N)c1=O (stereo unspecified)
 : -1, 5
> CCCCc1ccc(NCCn2c(C)c(C)n3c4c(=O)[nH]c(=O)n(C)c4nc23)cc1
 : 7, 1
> Cc1c(F)cccc1NC(=O)CNC(c1ccccn1)C(F)(F)F (stereo unspecified)
 : 6, -5
> CC(C)C(=O)Nc1nnc(SCC2CC2)s1
 : 23, 14
> CCc1ncc(C(=O)NC23CC4CC(C2)CC(n2nnc(C)n2)(C4)C3)cn1
 : -1, -8
> COc1ccc2nc(NC(=O)C34CC5(C)C3CCC54C)sc2c1 (stereo unspecified)
 : -18, -19
> CC(C)(C)NC(=O)NC(=O)COc1ncnc2sccc12
 : 0, 7
> O=C(CSc1nc(=O)n(Cc2ccccn2)c2c1CCC2)NC1CCCCC1
 : 7, 3
> O=C(CCN(Cc1ccco1)c1nc(-c2cccs2)nc2ccccc12)N1CCCC1
 : -1, -1
> COc1cccc(N2CCN(C(=O)c3cc(OC)c4c(c3)OCCO4)CC2)c1
 : -1, -5
> Cn1c(=O)[nH]c(=O)c2c1nc(SCCN1CCOCC1)n2CCCc1ccccc1
 : -2, 58
> CCc1nc2c(OCCOc3ccccc3)cccn2c1N(C)C(=O)C(C)C
 : 1, 5
> COc1ccc(C2CC(c3ccccc3)=NN2C(=O)CSc2nccc(=O)[nH]2)cc1 (stereo unspecified)
 : 5, 5
> O=C(Nc1cc2c(cc1[N+](=O)[O-])OCCO2)c1cc2nc(-c3cccs3)cc(C(F)(F)F)n2n1
 : 29, 25
> COc1ccc(CNc2ncccn2)c(C(F)(F)F)c1
 : 22&17, 11&9
> CN(C)CC(C)(C)CNC(=O)C1CSCN1C(=O)C(C)(C)C (stereo unspecified)
 : -16, -14
> C=CCOc1cccc(C(=O)N2CCOc3ccc(CN4CCN(c5ncccn5)CC4)cc3C2)c1
 : -2, -5
> N#Cc1ccc(CS(=O)(=O)CC(=O)Nc2ccc(CC(=O)N3CCCC3)cc2)cc1
 : 10, 6
> FC(F)(F)c1ccc(Oc2ccc(-c3nnco3)cc2)nc1
 : 18, 19
> Cc1ccc(CCNC(=O)C2CC(=O)N(C3CC3)C2)cc1C (stereo unspecified)
 : -2, -1
> COc1ccc(-c2cc(NC=O)c3ncc(-c4ccc(OC)c(OC)c4)n3c2)cc1
 : -5, -10
> COC(=O)CC(=O)NC1CCN(c2ccccc2C(=O)NCCc2ccc(OC)c(OC)c2)CC1
 : 11, 21
> O=C(O)c1ccccc1C1CCN(Cc2noc(-c3ccccc3)n2)C1 (stereo unspecified)
 : 2, 6
> COc1ccc(N2CCN(C(=O)C3CC=CCC3C(=O)Nc3ccccc3)CC2)cc1 (stereo unspecified)
 : -4, -11
> O=C(c1ccccc1N1CCC(NC(=S)Nc2ccc(F)cc2)CC1)N1CCOCC1
 : 22, 22
> CN1CCC(NC(=S)N2CCOC3CCCCC32)CC1 (stereo unspecified)
 : 2, -1
> Cc1ccc(OCc2occc2C(=O)N2CCOC(C(F)(F)F)C2)cc1 (stereo unspecified)
 : 10, 7
> CC(C)(C)C(NC(=O)Cn1ncc2c(=O)[nH]cnc21)c1cccs1 (stereo unspecified)
 : 0, -1
> Cc1ccccc1-c1cn[nH]c1C1CCN(C(=O)C2(C)CCCO2)CC1 (stereo unspecified)
 : 8, 8
> CC(=O)Nc1ccc(OCC(O)CN2CC(C)OCC2C)cc1 (stereo unspecified)
 : 1, 0

New compounds follow
Below each SMILES: NPYLR7 ag, NPYLR7 ag max-min
> O=C(NCc1ccc(N2CCCCC2)cc1)c1ccn(-c2ccccc2)n1
 : 0, -1
> COc1ccc(CCNC(=O)C(C2CCCC2)N2CCN(C(=O)c3ccco3)CC2)cc1 (stereo unspecified)
 : 9, 5
> Cn1nc(-c2ccc(NC(=O)c3ccc4ccccc4c3)cc2)ccc1=O
 : 1, 0
> Oc1c(C(Nc2ccccn2)c2cccs2)ccc2cccnc12 (stereo unspecified)
 : 5, 3
> COCCOCC(=O)N1CCN(Cc2cccc(-c3noc(COC)n3)c2)CC1
 : 3, 0
> CCOc1ccc2nc(N3CCCN(C/C(C)=C/c4ccco4)CC3)nc(C)c2c1
 : 13, -1
> CC(=O)N(c1ccccc1)C1C=C(Nc2ccccc2)C(=O)C1 (stereo unspecified)
 : 2, 36
> COc1cccc(-c2nc(OCC(C)C)nn2-c2cccc(NC(=O)Nc3ccc(F)cc3F)c2)c1
 : 17, 22
> CCN1CC(Cn2cnc(-c3ccccc3)c2-c2ccc(C)c(OC)c2)CC1=O (stereo unspecified)
 : 8, 8
> C[C@H](C(=O)NCCCO)N1Cc2ccc(-c3ccnn3C)nc2C1=O
 : -1, -4
> CCn1c(CN2CCc3nc(C)n(C)c(=O)c3CC2)nc2ccccc21
 : -5, -12
> CCOC(=O)C1(Cc2cccc(F)c2)CCN(Cc2cnn(C)c2)CC1
 : 12, 6
> COc1ccc(C(NC(=O)N2CCCC(C)CC2)c2ccc(F)cc2)cc1 (stereo unspecified)
 : -4, 108
> CN1CCN(C2Cc3ccccc3Sc3ccc(Cl)cc32)CC1 (stereo unspecified)
 : -1, -4
> COc1ccc(/C=C2/SC(=S)N(CC(=O)O)C2=O)cc1OC
 : -2, -5
> Oc1ccc(-c2nccn2CCCN2CCOCC2)cc1Cl
 : 19, 4
> Nc1nc2cc(-c3ccccc3CO)ccc2s1
 : 3, 4
> Cc1ccc(-c2nc(C(=O)N(Cc3ccco3)Cc3cc4c(cc3Cl)OCO4)cs2)cc1
 : 4, 3
> C=c1c(C#N)c2[nH]c(N)c(C#N)c(C)c-2/c1=C\c1ccc(OCc2ccc(C(=O)O)cc2)c(OC)c1
 : 8, 4
> Cc1cccc(NC(=O)CN(C)Cc2cc(C#N)ccc2F)c1C
 : 2, 1
> O=C(CCCc1ccccc1)Nc1ccnn1C1CCN(Cc2nccs2)CC1
 : -1, -1
> COC(=O)c1ccccc1Oc1nc(NC(C)C)nc(NC(C)C)n1
 : 1, -2
> Cc1ccc2oc(N3CCN(C)CC34CCCCC4)nc2c1
 : 14, 10
> NCC1Cc2cc(-c3ncccc3C(=O)N3CCCCC3)cc(Cl)c2O1 (stereo unspecified)
 : 6, 5
> CC(C)Nc1cc(-c2ccc3c(c2)OCO3)nc(N)n1
 : -4, -4
> CCCCSc1nnc2c(n1)-c1cccc3cccc-2c13
 : -4, -3
> CCn1ccnc1CN(C)Cc1cnn(C)c1C
 : 1, 1
> CSC1(CNC(=O)c2cccc(-n3cccn3)c2)CCOCC1
 : 3, 0
> O=C(NCCNc1nc(C2CC2)nc2cc(Cl)ccc12)c1ccco1
 : 22, 23
> Nc1oc2ncccc2c(=O)c1Br
 : -3, -2

Carrying on:
Below each SMILES: NPYLR7 ag, NPYLR7 ag max-min
> Cc1nnc(-c2cn(CC(=O)NCc3ccccc3)c3ccccc23)o1
 : 3, 9
> CCCn1c(=NC(=O)C2=COCCO2)sc2ccc(OC)cc21
 : -3, -4
> CC(C)c1ccc2c(c1)CC[C@H]1[C@](C)(CN)CCC[C@]21C
 : 8, -3
> CCC(=O)N1CCN(c2nc(C)cc(Nc3ccc(C)cc3)n2)CC1
 : 4, -2
> O=C(O)C1(Cc2ccccc2)CCCN(c2nnnn2-c2ccccc2)C1 (stereo unspecified)
 : 28, 22
> CC(=Nc1ccc(Cl)cc1C1COC(=O)C1=N)c1ccco1 (stereo unspecified)
 : -6, -9
> O=C1CC2CS(=O)(=O)CC2N1c1ccc(OC(F)F)c(Cl)c1 (stereo unspecified)
 : -1, 2
> CCOC(=O)CCC(=O)N1CCN(C(c2ccccc2)c2ccc(Cl)cc2)CC1 (stereo unspecified)
 : 12, 2
> C=CCNc1nc(NCCNC(C)=O)c2sc(-c3ccccc3)cc2n1
 : 6, 2
> CCn1c(C)c(/C=N\Nc2ccc([N+](=O)[O-])cc2)c2ccccc21
 : -3, -8
> CCCCC(=O)N1CCN(c2cc(Oc3ccc(Cl)cc3)ncn2)CC1
 : 9, 11
> CC(=O)N(CC(=O)Nc1cc(-c2ccccc2)nn1-c1ccc(F)cc1)Cc1ccccc1
 : -3, 5
> COc1ccccc1OC1CN(Cc2c(C)nn(C)c2Cl)C1
 : 2, 1
> CCOC(=O)C(c1cccc(OC)c1)C1C=CC(NC(=O)c2cc(C(F)(F)F)ccc2C(F)(F)F)C1 (stereo unspecified)
 : 5, 0
> O=C(Nc1ccccc1F)c1ccc2nnnn2c1
 : 7, 4
> CSc1nc(N(C)C)nc(N(C#N)CCOC(C)=O)n1
 : -1, 0
> CCCc1nc([N+](=O)[O-])c(S(=O)(=O)c2ccccc2)n1CC(C)C
 : 8, 5
> N#Cc1cccc(Cl)c1N1CCN(Cc2ccccn2)CC1
 : 0, -1
> CC1(C(=O)NS(=O)(=O)c2ccc(F)cc2F)CCN1C(=O)c1ccc(C2CCCCC2)cc1 (stereo unspecified)
 : 5, 3
> N#Cc1ccc(OCC(=O)Nc2nc3c(F)cccc3s2)cc1
 : 5, 6
> CC(C)(C)c1cc(CN2CCCC(CCNS(C)(=O)=O)C2)[nH]n1 (stereo unspecified)
 : 0, -6
> C/C(=N/NC(=O)C(NC(=O)c1ccccc1)c1n[nH]c(=O)c2ccccc12)c1cccc(Br)c1 (stereo unspecified)
 : -8, -8
> C=C1CC(=O)C2=C(C)C[C@H](OC(=O)Cc3ccccc3)C3[C@H](OC(=O)[C@H]3C)C12 (stereo partly specified)
 : 2, 2
> COC(CNc1ccc2nnc(CCNC(=O)c3ccccc3)n2n1)OC
 : 2, -9
> C=CCCC(O)(CCC=C)c1ccc(CN(CCCOC)Cc2cccs2)o1
 : -4, -2
> c1ccc2oc(CN3CCN(Cc4nc5ccccc5s4)CC3)nc2c1
 : -4, 28
> COC(=O)c1ccc2c(=O)[nH]c(-c3cc(F)cc(F)c3)nc2c1
 : 1, 0
> CN(C)N=CC=C1CCC(=Cc2ccc(F)cc2)C1=O
 : 3, 3
> Cc1c(C(=O)NCCN2CCCCC2)cc(-c2ccc(Cl)cc2)n1-c1ccc(F)cc1
 : 19, 35
> CNc1cc(C(=O)Nc2cccc(OCc3ccccc3)c2)ncn1
 : -5, -9

Remaining list, next part
Below each SMILES: NPYLR7 ag, NPYLR7 ag max-min
> CC(c1ccncc1)N(C)CC1CCNCC1 (stereo unspecified)
 : 7, 5
> Cc1c(C(=O)NCCc2nc(-c3ccccc3)cs2)oc2c(F)cccc12
 : 2, 2
> Cc1ccc(-c2nc3c(c(SCC(N)=O)n2)Cc2cc(C)ccc2O3)cc1
 : -9, -14
> CC(C)c1ccc(NC(=O)Cn2nc(-c3ccco3)c3sc(N4CCCCC4)nc3c2=O)cc1
 : -3, -6
> CNc1nc2cnc(Nc3ccc4c(c3)OCO4)cc2n1CCOC
 : 1, -6
> COCCN(Cc1ccc(C)cc1)Cc1ccc(C(O)(c2ccc(F)cc2)c2ccc(F)cc2)o1
 : -4, 2
> Cc1cc(C)n(CCCNS(=O)(=O)NCc2ccccc2)n1
 : 6, 2

Among those listed so far, twelve contain a Cl atom.
Below each SMILES: NPYLR7 ag, NPYLR7 ag max-min
> CN1CCN(C2Cc3ccccc3Sc3ccc(Cl)cc32)CC1 (stereo unspecified)
 : -1, -4
> Oc1ccc(-c2nccn2CCCN2CCOCC2)cc1Cl
 : 19, 4
> Cc1ccc(-c2nc(C(=O)N(Cc3ccco3)Cc3cc4c(cc3Cl)OCO4)cs2)cc1
 : 4, 3
> NCC1Cc2cc(-c3ncccc3C(=O)N3CCCCC3)cc(Cl)c2O1 (stereo unspecified)
 : 6, 5
> O=C(NCCNc1nc(C2CC2)nc2cc(Cl)ccc12)c1ccco1
 : 22, 23
> CC(=Nc1ccc(Cl)cc1C1COC(=O)C1=N)c1ccco1 (stereo unspecified)
 : -6, -9
> O=C1CC2CS(=O)(=O)CC2N1c1ccc(OC(F)F)c(Cl)c1 (stereo unspecified)
 : -1, 2
> CCOC(=O)CCC(=O)N1CCN(C(c2ccccc2)c2ccc(Cl)cc2)CC1 (stereo unspecified)
 : 12, 2
> CCCCC(=O)N1CCN(c2cc(Oc3ccc(Cl)cc3)ncn2)CC1
 : 9, 11
> COc1ccccc1OC1CN(Cc2c(C)nn(C)c2Cl)C1
 : 2, 1
> N#Cc1cccc(Cl)c1N1CCN(Cc2ccccn2)CC1
 : 0, -1
> Cc1c(C(=O)NCCN2CCCCC2)cc(-c2ccc(Cl)cc2)n1-c1ccc(F)cc1
 : 19, 35

A portion of the library, so the mix of outcomes need not match the whole.
